# Screening results (PubChem BioAssay)
# GALR2 ag – GALR2 receptor agonists, primary screen, cell-based. GALR2-expressing cells, agonist activation read-out. activation, %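 (tested at 5 µM)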. Galanin receptor type 2 (Homo sapiens), O43603. 0.48% of 140,000 active;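 active means above mean plus 3 SD of all compounds, about 5% in these data, not always enough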;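 further: 0% = vehicle buffer wells and 100% = reference agonist at full effect; tested in CHO reporter cells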
# Target sequence (O43603 whole entry, looked up): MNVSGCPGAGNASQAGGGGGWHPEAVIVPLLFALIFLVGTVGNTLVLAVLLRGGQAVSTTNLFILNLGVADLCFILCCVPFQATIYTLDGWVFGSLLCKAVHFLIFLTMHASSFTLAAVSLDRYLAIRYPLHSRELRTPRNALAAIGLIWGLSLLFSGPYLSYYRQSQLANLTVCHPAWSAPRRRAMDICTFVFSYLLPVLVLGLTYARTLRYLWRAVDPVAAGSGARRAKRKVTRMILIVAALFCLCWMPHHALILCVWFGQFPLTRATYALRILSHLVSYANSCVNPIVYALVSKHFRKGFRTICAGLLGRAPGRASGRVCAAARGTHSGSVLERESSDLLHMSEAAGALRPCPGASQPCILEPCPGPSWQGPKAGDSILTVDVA
# INS promoter inh – inhibitors of insulin promoter-driven GFP, primary screen, imaging, TRM-6 cells (human fetal islet line), eGFP reporter, cell count. reporter expression induced with tamoxifen. inhibition, % at 2 µM. 0.9% of 130,000 active. AID 1273, 2008;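 active means inhibition above the mean plus 3 SD, with well images judged a real hit on visual review, cut at about 60% in these data, passing the limit was not always enough; inconclusive means inhibition over the cutoff but images rejected on review; inactive means inhibition not above the cutoff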
# HSV augment – enhancers of HSV replication in host cells, fold increase, host cell viability. HSV replication augmentation in cells. maximum fold increase. 0.005% of 220,000 active;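 active means peak rise of 1.5-fold or more in the series; inconclusive means self-fluorescent or not available for retest; tested in PC3 cells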;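 further: first round at 10 µM; read as green reporter fluorescence; hits show the peak of a series up to 25 µM; 1 = signal of infected wells without compound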
# PKD1 inh – inhibitors of human PKD1 kinase, biochemical, fluorescence polarization; inhibition, %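 (about 10 µM by stock and volumes)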; AID 797, 2007; PKD1 kinase fluorescence polarization assay; Serine/threonine-protein kinase D1 (Homo sapiens), Q15139; 0.056% of 200,000 active;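 active means inhibition of 50% or more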;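 further: controls were vehicle for no effect and a reference inhibitor for full effect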
# RGS16-Gao HTS – modulators of RGS16 binding to Galphao, primary screen, biochemical, human proteins, multiplexed bead flow cytometry | AID 1441, 2008 | 0.38% of 220,000 active | bead-based flow cytometry RGS16-Galphao binding, fluorescence; actives lie on both sides | binding response (% of control), % at 10 µM | Regulator of G-protein signaling 16 (Homo sapiens) + Guanine nucleotide-binding protein …;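 active means below 25% or above 175%, edge rows of some plates excepted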;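 further: Galphao activated by GDP with aluminum fluoride before binding; 100% = wells without compound and 0% = beads without RGS; some results beyond the cut were filed as inactive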
# Target sequence (O15492 whole entry, looked up): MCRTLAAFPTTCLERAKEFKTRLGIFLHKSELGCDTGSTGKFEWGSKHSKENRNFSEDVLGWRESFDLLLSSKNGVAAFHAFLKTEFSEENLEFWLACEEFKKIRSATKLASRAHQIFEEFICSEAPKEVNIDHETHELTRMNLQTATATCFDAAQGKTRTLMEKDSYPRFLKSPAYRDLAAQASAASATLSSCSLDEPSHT
# Target sequence (P09471 whole entry, looked up): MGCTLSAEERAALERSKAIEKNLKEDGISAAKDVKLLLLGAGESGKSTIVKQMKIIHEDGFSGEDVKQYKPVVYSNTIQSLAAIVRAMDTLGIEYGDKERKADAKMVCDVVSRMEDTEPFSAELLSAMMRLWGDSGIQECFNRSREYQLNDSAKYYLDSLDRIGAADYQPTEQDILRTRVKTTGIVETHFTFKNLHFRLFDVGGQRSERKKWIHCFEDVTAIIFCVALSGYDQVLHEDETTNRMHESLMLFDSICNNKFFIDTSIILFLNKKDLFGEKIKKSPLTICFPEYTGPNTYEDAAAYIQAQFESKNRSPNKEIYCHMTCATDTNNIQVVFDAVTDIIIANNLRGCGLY
# INS promoter inh cell count – also measured in INS promoter inh; calls as there; normalized cell count, %; measured here: cell count, toxicity; reference of the scale not given here;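 cells exposed to compound for 48 h; stained nuclei by imaging scaled within each plate; lower means fewer cells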
# HSV augment primary fold – further read-out of HSV augment, marked with its call; fold increase; compound at 10 µM; measured here: primary screen fold increase 10 uM; tested in PC3 cells;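 GFP signal in the first replicate; 1 = infected wells without compound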
# Numbers without * were called inactive; i = inactive; ? = inconclusive; . = not tested or not shown.
SMILES,GALR2 ag,INS promoter inh,INS promoter inh cell count,HSV augment,HSV augment primary fold,PKD1 inh,RGS16-Gao HTS
Cc1ccc(NC(=O)Cc2ccc([N+](=O)[O-])cc2)c(Br)c1,-0.1,53,68,i,0.95,-10,104
NNC(=O)c1cccc(COc2ccccc2Br)c1,-0.4,-20,134,.,.,-1,96
COc1ccc(N2C(=O)CCC(C(=O)NCc3ccccn3)C2c2ccc(OC)c(OC)c2)cc1 (stereo not given),-1.5,6,107,i,0.89,-6,114
CC(=O)OCCn1c2nc(=O)[nH]c(=O)c-2nc2cc(C)c(C)cc21,.,.,.,?,.,.,99
CCN(Cc1ccccc1)C(=O)/C=C/c1ccccc1[N+](=O)[O-],.,.,.,i,1.1,-6,97
Cc1ccc(NC(=O)N2CCN(c3ccccn3)CC2)cc1,-0.3,-17,102,i,0.81,1,103
CCN1CCN(CCCN(Cc2ccco2)C(=S)Nc2cccc(Cl)c2C)CC1,.,.,.,i,0.95,-1,96
CSc1nn(-c2ccc(C(=O)OC(C(=O)NC(N)=O)C(C)C)cc2)c(=S)s1 (stereo not given),.,.,.,i,0.98,0,103
O=C(Cn1cnc2ccccc2c1=O)Nc1ccc(-c2nnc3n2CCCCC3)cc1,-2.0,93*,41*,i,1,2,100
CCc1cccc(NC(=O)CSC2=NS(=O)(=O)c3ccccc32)c1,-1.2,.,.,i,0.63,2,82
CCOc1ccc(S(=O)(=O)N(C)c2ccc(OCC(=O)Nc3ccc4[nH]c(=O)[nH]c4c3)cc2)cc1,-0.8,-7,56,i,0.77,4,118
Cn1nc(C(=O)N2CCN(C(c3ccccc3)c3ccccc3)CC2)c2ccccc2c1=O,.,.,.,i,1.2,.,110
CC(NC(=O)COC(=O)Cn1cnc2ccccc2c1=O)C1CC2CCC1C2 (stereo not given),-1.8,0,108,i,1.1,-6,78
O=C(OCn1nnc2ccccc2c1=O)c1cc(-c2ccccc2)nc2ccccc12,0.4,26,144,i,0.96,-2,96
CCN(CCNC(=O)Nc1ccc(Cl)cc1)c1ccccc1,-2.7,-24,102,i,0.81,0,110
Cc1ccc(-n2c(SCC(=O)N/N=C/C=C/c3ccccc3[N+](=O)[O-])nc3ccccc3c2=O)cc1,-1.7,-13,47,i,0.95,-11,91
COc1ccc(OC)c(-c2nc3cc4ccccc4cc3nc2-c2ccccc2)c1,-0.1,12,62,i,1,-3,75
N#Cc1ccccc1OCC(=O)NCC1(N2CCCCC2)CCCCC1,.,8,49,i,1.1,4,99
O=C(O)CCCNC(=O)OCc1ccccc1,-1.3,.,.,i,0.68,11,100
CCCC(c1nnnn1Cc1ccc(F)cc1)N1CCN(C)CC1 (stereo not given),.,.,.,i,1,1,106
C=CCOC(=O)/C(=C\c1cccc2ccccc12)NC(=O)c1ccccc1,-0.1,.,.,i,0.95,-7,87
Cc1nn2c(-c3ccncc3)nnc2c2ccccc12,-0.3,-12,110,i,0.73,-14,93
COc1ccc2c(c1)N1CCN=C1N2C,-3.0,7,188,i,0.91,-24,110
Cc1cc(NC(=O)CO/N=C/c2ccc3c(c2)OCO3)ccc1Br,.,-6,124,i,0.91,1,97
COc1ccccc1OCCn1cc(/C=N/NC(=O)c2ccncc2)c2ccccc21,.,.,.,i,0.88,.,107

# In a second layout: entries from further up.
# Second line of a record – GALR2 ag, INS promoter inh, INS promoter inh cell count, HSV augment, HSV augment primary fold, PKD1 inh, RGS16-Gao HTS
CCCC(c1nnnn1Cc1ccc(F)cc1)N1CCN(C)CC1 (stereo not given)
 : ., ., ., i, 1, 1, 106
C=CCOC(=O)/C(=C\c1cccc2ccccc12)NC(=O)c1ccccc1
 : -0.1, ., ., i, 0.95, -7, 87
Cc1nn2c(-c3ccncc3)nnc2c2ccccc12
 : -0.3, -12, 110, i, 0.73, -14, 93
COc1ccc2c(c1)N1CCN=C1N2C
 : -3.0, 7, 188, i, 0.91, -24, 110
Cc1cc(NC(=O)CO/N=C/c2ccc3c(c2)OCO3)ccc1Br
 : ., -6, 124, i, 0.91, 1, 97

# The list continues.
SMILES,GALR2 ag,INS promoter inh,INS promoter inh cell count,HSV augment,HSV augment primary fold,PKD1 inh,RGS16-Gao HTS
CC1CC2OC(=O)C3(C)CCCC(C)(C23)C1(O)CCc1ccoc1 (stereo not given),.,.,.,i,1.2,.,104
C1CCN=C(Nc2nn[nH]n2)CC1,-2.5,18,104,i,0.95,-7,96
Cc1ccc(Cn2cc(S(=O)(=O)c3ccc(Cl)cc3)c(=O)c3cc(F)ccc32)cc1,0.7,19,107,i,0.86,3,101
COc1ccccc1/C=N/Nc1cc(C)nc(N2CCOCC2)n1,.,.,.,i,0.93,.,83
O=C(COc1ccccc1)NCC(=O)N/N=C/c1ccc(O)cc1O,.,.,.,i,0.91,.,90
COc1ccccc1NC(=O)CN1CCN(CC(=O)Nc2ccc(Cl)c(C(F)(F)F)c2)CC1,-2.4,-107,50,i,0.89,-3,103
Cc1cc(C)cc(OCC(=O)Nc2ccc3c(c2)OCO3)c1,.,.,.,i,1,4,96
CC(C)c1c(O)c2c(n(-c3ccccc3)c1=O)CCCC2,0.0,0,123,i,0.96,22,107
Cc1ccc(C(=O)N/C(=C/c2ccco2)C(=O)NCCc2c[nH]c3ccccc23)cc1C,-1.7,.,.,i,1,-5,87
O=[N+]([O-])c1ccccc1/C=N/Nc1nc(N2CCCC2)nc(N2CCCC2)n1,.,47,146,i,0.77,0,102
COC(=O)c1c(NC(=O)CCC(=O)O)sc(Cc2ccccc2)c1C,.,.,.,i,1,.,97
COC(=O)c1ccc(Cl)c(NC(=O)CN(c2ccc(OC)cc2)S(=O)(=O)c2ccccc2)c1,-0.8,-47,103,i,1,1,.
O=C(CSc1nnc(-c2ccc(S(=O)(=O)N3CCOCC3)cc2)o1)c1ccccc1F,-2.4,.,.,i,1.2,-5,100
CC(=O)c1cccc(NC(=S)N2CCC(Cc3ccccc3)CC2)c1,.,-47,90,i,1,5,103
COc1cc2[nH]c(=S)n(CC3CCCO3)c(=O)c2cc1OC (stereo not given),-5.2,-23,230,i,0.83,-6,103
Cc1ccccc1N(C)C(=O)c1coc(=O)c2ccccc12,-0.7,-27,39,i,0.99,-6,112
COc1cccc(CC(=O)Nc2nc(-c3cc(OC)ccc3OC)cs2)c1,.,.,.,i,1,-8,102
O=C(CSc1cccc2cccnc12)N/N=C/c1ccncc1,.,-41,109,i,1.1,-5,102
Cc1nn(Cc2ccccc2Cl)c(C)c1N,-1.9,19,160,.,.,-3,99
CCCCCCCCNc1nc(Cl)nc(NCc2ccco2)n1,-1.3,.,.,i,0.99,8,98
Cc1nn(-c2ccccc2)c(C)c1/C=N/NC(=O)c1cc(C(C)(C)C)[nH]n1,-2.4,54,67,i,0.84,-1,88
COc1ccccc1N1CCN(C(=O)c2ccc3[nH]c4c(c3c2)CC(C)CC4)CC1 (stereo not given),0.5,-23,106,i,0.61,-10,118
O=C(CN1CCN(S(=O)(=O)c2ccc3ccccc3c2)CC1)NC(=O)NC1CCCCC1,-1.9,.,.,i,0.96,3,106
Cc1ccc(-n2ncc3c(=O)[nH]c(SCC(=O)N4CCCC4)nc32)cc1C,-0.8,-32,58,.,.,-8,106
CN1CCN(c2ccc(C(=O)c3cn(-c4ccc(F)c(Cl)c4)nn3)cc2)CC1,.,.,.,i,0.99,1,95

# Continued:
SMILES,GALR2 ag,INS promoter inh,INS promoter inh cell count,HSV augment,HSV augment primary fold,PKD1 inh,RGS16-Gao HTS
COc1cccc(-c2cc(C(=O)O)[nH]n2)c1,-0.3,-3,207,i,1,-10,89
CC1CCCN(S(=O)(=O)c2ccc3c(c2)n(C)c(=O)c(=O)n3C)C1 (stereo not given),.,.,.,i,1.1,.,106
CC(C)(C)OC(=O)N1CCC[C@H]1C(=O)N/N=C/c1ccc2nccnc2c1,.,.,.,i,0.94,.,91
CCOC(=O)c1cccc(NC2c3ccccc3C(=O)N2Cc2ccco2)c1 (stereo not given),-0.5,.,.,i,1,-2,102
C#CCOCCOCCOCCNc1nc(N2CCN(C(=O)[C@H]([C@@H](C)CC)n3cc([C@@H](N)CC(C)C)nn3)CC2)nc(N2CCN(C(=O)[C@H](Cc3cc4ccccc4[nH]3)n3cc([C@@H](N)CC(C)C)nn3)CC2)n1,.,.,.,i,0.88,.,94
CCCC1CCC(C(=O)Nn2c(C)nc3ccccc3c2=O)CC1 (stereo not given),-0.8,41,114,i,1,-7,105
S=C(c1ccc(N2CCOCC2)cc1)N1CCCCC1,-5.1,12,150,i,0.86,-11,91
Cc1ccc(C2=NN(CCC(=O)NCc3ccc4c(c3)OCO4)C(=O)CC2)cc1,-0.3,16,150,i,1,-2,119
COC(=O)Cc1csc(Nc2ccc(Cl)cc2)n1,-1.0,56,89,i,0.89,-7,106
O=c1c(Cc2ccc(Cl)cc2)c(O)ccn1Cc1cccs1,.,-62,91,i,0.97,-2,95
CCN(CC)CCCOc1ccc(Cl)c(Cl)c1,0.4,-47,71,i,1,4,95
COc1ccc(C2C3(C#N)C(N)=NC(OC)(OC)C23C#N)cc1 (stereo not given),.,-87,96,i,1,-3,104
CC(C)CCN(C(=O)COc1ccc(C#N)cc1)c1c(N)n(Cc2ccccc2)c(=O)[nH]c1=O,.,.,.,i,1.1,2,96
O=C(NCc1ccccc1)NC1CCCCC1,-2.4,.,.,i,0.85,-5,97
Cc1cc(=O)[nH]c(N2CCN(Cc3ccccc3)CC2)n1,-0.1,-42,76,i,1,-7,103
CC1Cc2ccccc2N1C(=O)COC(=O)CCc1nc2ccccc2c(=O)[nH]1 (stereo not given),.,37,55,i,0.85,5,100
CCOC(=O)C1=C(CSc2nc(C)ccc2C#N)OC(N)=C(C#N)C1c1cccc(OC)c1OC (stereo not given),0.5,.,.,?,.,2,95
CCC(OC(=O)CC1Sc2ccccc2NC1=O)C(=O)NCC1CCCO1 (stereo not given),1.4,43,162,i,1.3,-8,88
Cc1ccc(S(=O)(=O)Nc2cc(C(F)(F)F)ccc2N2CCOCC2)cc1C,-2.3,-22,95,i,0.9,1,92
Cc1nc2ccccc2n1CC(=O)OCC(=O)NCCc1ccccc1,-2.5,31,58,i,0.92,-6,76
CN(C)c1ncnc(N(C)C)c1[N+](=O)[O-],.,.,.,i,0.82,.,104
COc1ccc(C2=NN3C(C2)c2ccccc2OC3c2cccs2)cc1 (stereo not given),.,.,.,i,0.93,-1,66
COc1ccc(-c2ccc(CCC(=O)O)n2NC(=O)c2ccc(C(C)(C)C)cc2)cc1,.,.,.,i,1,-3,104
COc1ccc(CCC(=O)O)c(O)c1,.,.,.,i,0.93,.,119
O=C1NC2(CCCc3ccccc32)C(=O)N1CCOc1ccc(Br)cc1 (stereo not given),-2.0,-35,124,i,0.96,-6,125

# Next structures follow:
SMILES,GALR2 ag,INS promoter inh,INS promoter inh cell count,HSV augment,HSV augment primary fold,PKD1 inh,RGS16-Gao HTS
Nc1cccc(-c2ccc(CO)o2)c1,.,-7,85,i,0.95,-2,99
Cc1ccc(/C=N/NC(=O)CN2CCN(Cc3ccccc3Cl)CC2)o1,.,.,.,i,1.1,.,102
Cc1onc(-c2ccccc2)c1C(=O)NC(=S)NNC(=O)c1ccccc1O,-1.6,20,113,i,0.76,10,104
c1ccc2c(-c3csc(-c4ccncc4)n3)c[nH]c2c1,.,-25,104,i,0.68,15,99
CCOc1ccc(Cc2nnc(SCC(N)=O)n2C)cc1,-0.9,23,92,i,0.95,-10,88
Nn1c(SCC(=O)Nc2ccc3c(c2)OCO3)nnc1-c1ccc(Cl)cc1,0.0,30,59,i,0.8,2,107
COc1ccccc1NC(=O)CSc1nnc(Cc2cc(=O)[nH]c(=O)[nH]2)n1-c1ccccc1,-1.5,.,.,i,0.84,-7,104
O=C(O)c1csc(-c2cccc(Cl)c2)n1,.,.,.,i,0.93,.,99
O=C(COc1cccc(F)c1)Oc1ccc(C(=O)c2ccccc2)cc1,-0.4,22,125,i,0.89,15,97
NCCCCCc1nnc(SC/C=C/c2ccccc2)o1,-1.0,20,79,i,0.79,-6,104

# No new results follow: an excerpt of the list.
SMILES,GALR2 ag,INS promoter inh,INS promoter inh cell count,HSV augment,HSV augment primary fold,PKD1 inh,RGS16-Gao HTS
Nc1cccc(-c2ccc(CO)o2)c1,.,-7,85,i,0.95,-2,99
Cc1ccc(/C=N/NC(=O)CN2CCN(Cc3ccccc3Cl)CC2)o1,.,.,.,i,1.1,.,102
